# DUX4 inh = blocks DUX4-driven transcriptional activation. AID 1224904. 293T-iDUX4 ZSCAN4-Gaussia luciferase reporter, 24 h; hits give low values. activity change, negative = inhibition, % (concentration not given with the values). 0.8% of 37,000 active;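 active means -10% or lower and over 25 points stronger than a control reporter; inconclusive means -10% or lower with a smaller gap; inactive means above -10%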;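 further: 0% = median of neutral control wells and -100% = median of positive control wells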
# DUX4 inh difference = further read-out of DUX4 inh, marked with its call; Gaussia minus Italica difference, %; measured here: selective DUX4 reporter inhibition;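 worked out from the two reporters; negative = selective loss of the DUX4 reporter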
# DUX4 inh control = second read-out of DUX4 inh, no call of its own (marks repeat the call); activity change, negative = inhibition, %; measured here: Italica tet-on control reporter;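 0 = neutral control and -100 = positive control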
# * hit, by the source's call; ? = inconclusive; nt = not tested or not shown; & = joins results of further samples. Not all compounds are listed (hit frequency here may not be typical).
structure,DUX4 inh,DUX4 inh difference,DUX4 inh control
COc1ccc(C#Cc2ccc3c(c2)[C@@H]2[C@@H](CCN2S(=O)(=O)c2cccc(OC)c2)[C@@H](CO)N3)cc1,5.2,3.1,2.1
CN1C(=O)c2cc(NC(=O)c3ccc(F)cc3)ccc2OC[C@H]2O[C@H](CC(=O)N3CCOCC3)CC[C@H]21,2.1,1.3,0.8
CO[C@H]1CN(C)C(=O)c2ccc(NC(=O)C3CC3)cc2OC[C@@H](C)N(Cc2cncnc2)C[C@H]1C,3.7,2.5,1.2
COc1ccc(C(=O)Nc2ccc3c(c2)C(=O)N(C)[C@@H]2CC[C@H](CC(=O)NCC4CC4)O[C@@H]2CO3)cc1,3.2,3.5,-0.3
C/C=C/c1ccc([C@H]2[C@@H](CO)N3CCCCN(C)C[C@H]23)cc1,18.9,2.5,16.5
CO[C@@H]1CN(C)C(=O)c2cc(NC(=O)CC(F)(F)F)ccc2OC[C@@H](C)N(S(=O)(=O)c2cn(C)cn2)C[C@@H]1C,7.8,6.2,1.6
CNC[C@H]1OCCCC[C@H](C)Oc2ccc(NC(=O)Nc3c(C)noc3C)cc2C(=O)N([C@@H](C)CO)C[C@H]1C,1.0,2.0,-0.9
C[C@@H]1CN([C@H](C)CO)C(=O)c2cc(NC(=O)c3ccncc3)ccc2O[C@@H](C)CCCCO[C@@H]1CN(C)C(=O)Nc1cccc2ccccc12,1.0,-3.7,4.7
CCCC(=O)N1CC2(C1)CN(C(=O)Nc1cccc(F)c1)[C@@H](CO)c1c2c2ccc(OC)cc2n1C,?,nt,nt
COc1ccccc1C#Cc1ccc2c(c1)[C@H]1NCC[C@H]1[C@@H](CO)N2,?,nt,nt
O=C(Nc1cc(F)ccc1F)N[C@@H]1CC[C@@H](CC(=O)N2CCc3ccccc3C2)O[C@@H]1CO,?,nt,nt
COCC(=O)N1CC[C@@H]2[C@H](CO)Nc3ccc(-c4cccc(C(=O)N(C)C)c4)cc3[C@@H]21,?,nt,nt
N#C[C@@H]1[C@@H](c2ccccc2)[C@@H](CO)N1C(=O)c1cccnc1,-2.7,0.6,-3.3
O=C(Nc1cc(F)ccc1F)N1CC(=O)N2[C@@H](CO)[C@H](c3ccc(C#CC4CCCCC4)cc3)[C@@H]2C1,-3.2,-7.8,4.6
O=C(C[C@H]1CC[C@H]2[C@@H](COC[C@H](O)CN2Cc2cccc(C(F)(F)F)c2)O1)NCCc1ccncc1,1.4,-2.6,4.0
COc1cccc(-c2ccccc2[C@@H]2[C@@H](CO)N(C(=O)Cc3ccccc3)[C@H]2C#N)c1,?,nt,nt
CN(C)C(=O)c1ccc(-c2ccc([C@H]3[C@H](CO)N4CCCCN(Cc5cncnc5)C[C@@H]34)cc2)cc1,12.8,7.8,5.0
C[C@H](CO)N1C[C@H](C)[C@@H](CN(C)Cc2ccc(Oc3ccccc3)cc2)OCc2cnnn2CCCC1=O,7.4,6.4,1.0
COc1cccc(S(=O)(=O)N(C)C[C@@H]2Oc3cc(C4=CCCCC4)ccc3S(=O)(=O)N([C@@H](C)CO)C[C@@H]2C)c1,1.6,2.3,-0.7
CC=Cc1ccc2n(c1=O)C[C@H]1[C@H](CO)[C@@H](C(=O)NCC3CC3)N(Cc3nccs3)[C@@H]21 (mixture of isomers),-0.6,1.4,-2.0
O=C(C[C@@H]1CC[C@H](NC(=O)C2CC2)[C@H](CO)O1)Nc1ccccc1,0.6,-1.4,2.0
O=C(C[C@@H]1C[C@H]2c3cc(NC(=O)Nc4ccccc4F)ccc3O[C@H]2[C@H](CO)O1)NCc1ccccn1,12.5,7.4,5.1
CNC(=O)C[C@H]1CC[C@H]2[C@@H](COc3ccc(NC(=O)c4cnccn4)cc3C(=O)N2C)O1,2.0,-0.4,2.4
CC(=O)N1CC2(C1)[C@H](c1ccc(-c3ccc(F)cc3)cc1)[C@@H](CO)N2C(C)=O,4.4,0.3,4.0
CN1C(=O)c2cc(NC(=O)c3cccc(C(F)(F)F)c3)ccc2OC[C@@H]2O[C@@H](CC(=O)NCCN3CCCC3)CC[C@H]21,2.7,-1.0,3.8
CCNC(=O)C[C@H]1CC[C@H]2[C@@H](COC[C@@H](O)CN2C(=O)c2cccnc2)O1,-3.8,-5.6,1.7
O=C(NCC[C@H]1CC[C@H](NS(=O)(=O)c2ccc(Cl)cc2)[C@@H](CO)O1)Nc1ccc(F)cc1,1.2,5.2,-4.0
Cc1noc(C)c1S(=O)(=O)N(C)C[C@H]1OCc2cn(nn2)CCCC(=O)N([C@H](C)CO)C[C@H]1C,9.4,13.3,-3.9
CN1c2ccc(-c3ccccc3)cc2[C@@H]2[C@@H](CCN2C(=O)Cc2ccccn2)[C@@H]1CO,4.6,3.8,0.8
O=C(C[C@H]1CC[C@@H]2[C@H](COC[C@H](O)CN2Cc2cc(F)ccc2F)O1)NCc1ccc(Cl)cc1,?,nt,nt
CC=Cc1ccc2n(c1=O)C[C@H]1[C@H](CO)[C@@H](C(=O)NCc3ccccc3F)N(CC)[C@@H]21 (mixture of isomers),7.8,12.2,-4.4
Cc1cc(C(=O)Nc2ccc3c(c2)C(=O)N(C)[C@H]2CC[C@@H](CC(=O)N[C@H](C)c4ccccc4)O[C@@H]2CO3)no1,0.4,3.1,-2.7
COc1ccc(S(=O)(=O)Nc2ccc3c(c2)C(=O)N([C@H](C)CO)C[C@H](C)[C@H](CN(C)C(=O)CCC(F)(F)F)OCCCC[C@H](C)O3)cc1,3.2,3.9,-0.6
CN1CCN(C(=O)C[C@H]2C[C@H]3c4cc(NC(=O)Cc5ccncc5)ccc4O[C@H]3[C@H](CO)O2)CC1,-0.6,-1.7,1.0
COc1ccccc1NC(=O)N(C)C[C@H]1OCc2ccccc2-c2ccccc2C(=O)N([C@@H](C)CO)C[C@@H]1C,19.8,24.2,-4.5
CO[C@@H]1CN(C)C(=O)c2cc(NS(=O)(=O)c3ccccc3)ccc2OC[C@@H](C)N(Cc2cccnc2)C[C@H]1C,-7.9,-12.9,5.0
CCN1[C@H](C(=O)NCC(F)(F)F)[C@@H](CO)[C@@H]2Cn3c(ccc(-c4ccccc4)c3=O)[C@@H]21,-6.5,-12.6,6.0
CCCNC(=O)N1CC(=O)N2[C@H](C1)[C@@H](c1ccc(-c3cccc(C)c3)cc1)[C@@H]2CO,-3.1,0.0,-3.1
N#C[C@@H]1[C@H](c2ccccc2-c2cccc(F)c2)[C@@H](CO)N1C(=O)C1CCC1,-3.3,0.4,-3.8
CCCNC(=O)[C@H]1[C@H](CO)[C@H]2Cn3c(cccc3=O)[C@@H]1N2C(=O)C1CCCC1,4.8,-1.4,6.2
C/C=C/c1ccccc1[C@@H]1[C@@H](CO)N(C(=O)NC2CCCCC2)[C@H]1C#N,-6.1,-2.9,-3.2
CCC(=O)N1[C@H](CO)[C@H]2c3ccccc3N(S(=O)(=O)c3ccccc3F)C[C@H]21,5.0,2.9,2.0
COc1ccc(NC(=O)Nc2ccc3c(c2)[C@@H]2C[C@@H](CC(=O)NC4CCCCC4)O[C@@H](CO)[C@@H]2O3)cc1,-7.1,-6.4,-0.6
CN1C[C@H]2[C@@H](c3ccccc31)[C@@H](CO)N2Cc1ccccc1,-2.6,-6.4,3.9
CN1C(=O)c2cc(NC(=O)Nc3cccc(Cl)c3)ccc2OC[C@@H]2O[C@H](CC(=O)NCCc3ccncc3)CC[C@H]21,-0.6,-1.3,0.7
O=C(C[C@H]1C=C[C@@H](NC(=O)Nc2cccc(F)c2)[C@@H](CO)O1)NCC1CCCCC1,5.0,8.5,-3.5
C[C@H]1CN([C@@H](C)CO)C(=O)c2ccccc2-c2ccccc2CO[C@H]1CN(C)Cc1cccc(O)c1,-1.7,-1.9,0.1
CCC(=O)N1CCCCN2[C@H](CO)[C@@H](c3ccc(-c4cccc(C#N)c4)cc3)[C@H]2C1,28.9,23.0,5.9
COc1ccc(CN2[C@H](CO)[C@@H]3c4ccccc4NC[C@@H]32)cc1,-0.5,1.5,-2.0
C[C@@H]1CN([C@@H](C)CO)S(=O)(=O)c2ccc(/C=C/c3ccccc3)cc2O[C@H]1CN(C)C(=O)NC1CCCCC1,-2.9,-4.1,1.3
O=C(CC(F)(F)F)N1C[C@H]2[C@@H](c3ccccc31)[C@@H](CO)N2Cc1cccnc1,3.2,4.6,-1.3
C[C@@H]1CN([C@H](C)CO)C(=O)c2cc(NC(=O)CCCN(C)C)ccc2O[C@@H](C)CCCCO[C@H]1CN(C)S(=O)(=O)c1cn(C)cn1,6.5,2.7,3.8
C[C@H](CO)N1C[C@H](C)[C@H](CN(C)S(=O)(=O)c2ccc(F)cc2)Oc2ccc(N(C)C)cc2C1=O,1.5,1.7,-0.2
CN(C)CC#Cc1ccc([C@H]2[C@H]3CN(C(=O)c4ccccc4)CC(=O)N3[C@H]2CO)cc1,5.7,-7.2,12.8
COc1cccc(-c2ccc3n(c2=O)C[C@H]2[C@H](CO)[C@@H](C(=O)N4CCCCC4)N(C)[C@@H]32)c1,5.0,2.5,2.5
COc1ccc(S(=O)(=O)N2CC[C@H]3[C@H](CO)Nc4ccc(Br)cc4[C@H]32)cc1,5.5,5.0,0.5
COc1cccc(CNC(=O)[C@H]2[C@H](CO)[C@H]3Cn4c(cccc4=O)[C@@H]2N3C(=O)C2CC2)c1,-0.7,-1.4,0.7
CS(=O)(=O)N1CC2(C1)[C@H](c1ccccc1)[C@@H](CO)N2C(=O)c1ccccc1,-1.2,0.5,-1.7
CO[C@H]1CN(C)C(=O)c2cc(NS(=O)(=O)CC(F)(F)F)ccc2OC[C@@H](C)N(Cc2ccccn2)C[C@@H]1C,-3.9,-3.9,0.0
CC(=O)N(C[C@@H]1N[C@@H](CO)[C@H]1c1ccc(-c2ccccc2)cc1)C(C)C,2.1,1.0,1.2

# Next part:
structure,DUX4 inh,DUX4 inh difference,DUX4 inh control
COc1ccccc1CN1[C@H](C(=O)NCc2ccccc2)[C@@H](CO)[C@@H]2Cn3c(cccc3=O)[C@@H]21,-3.7,1.3,-5.0
COc1ccc2c3c([nH]c2c1)[C@H](CO)N(C(=O)c1ccc(F)cc1)CC31CCN(C)CC1,0.0,7.0,-7.1
CO[C@@H](CN(C)Cc1ccc2c(c1)OCO2)[C@@H](C)CN(C(=O)Nc1ccc(F)cc1)[C@H](C)CO,1.2,1.9,-0.7
CC(C)NC(=O)N1[C@@H](CO)[C@H](c2ccccc2)[C@@H]1CN(C)C(=O)c1cccnc1,3.7,2.8,0.9
COc1ccc2c3c([nH]c2c1)[C@@H](CO)N(Cc1cccc(Cl)c1)CC31CCN(C(C)=O)CC1,?,nt,nt
C/C=C/c1ccc([C@@H]2[C@H](CO)N3C(=O)CN(C(=O)c4ccncc4)C[C@@H]23)cc1,13.3,0.3,13.0
CCC(=O)NC[C@H]1N[C@H](CO)[C@@H]1c1ccc(-c2cccnc2)cc1,-2.2,-7.2,5.0
COc1cccc(-c2ccc(C3[C@H]4CNC[C@@H]3N4C(=O)Nc3ccccc3F)cc2)c1 (stereo not given in full),14.0&3.4,15.2&4.6,-1.2&-1.2
CCN(C[C@H]1N[C@@H](CO)[C@@H]1c1ccc(-c2cccc(C#N)c2)cc1)C(=O)COC,1.7,2.6,-0.9
Cc1ccccc1CN(C)C[C@@H]1OCc2cnnn2CCCC(=O)N([C@@H](C)CO)C[C@H]1C,-1.4,-3.8,2.4
C[C@H](NC(=O)C[C@H]1C[C@@H]2c3cc(N(C)C)ccc3O[C@@H]2[C@H](CO)O1)c1ccccc1,-1.8,-2.3,0.5
COCCNC(=O)[C@@H]1[C@@H](CO)[C@@H]2Cn3c(ccc(-c4ccccc4F)c3=O)[C@@H]2N1C(=O)C1CCCC1,0.0,0.7,-0.7
COc1ccc(-c2ccc([C@H]3[C@H]4CN(CC5CCOCC5)CCCCN4[C@H]3CO)cc2)cc1,4.7,-2.3,6.9
CS(=O)(=O)N1[C@H](C#N)[C@H](c2ccc(C#CC3CCCC3)cc2)[C@@H]1CO,0.4,0.5,-0.1
CO[C@H]1CC[C@H]2CCOc3c(C#N)cccc3C(=O)N(C)C[C@@H](C)C(=O)N(C)C[C@H]1O2,-5.0,-4.3,-0.6
OC[C@H]1[C@H](c2ccc(Br)cc2)[C@H]2CN(Cc3ccccn3)CCCCN21,13.3,14.8,-1.5

# Sorted by value in DUX4 inh (high to low): some entries from above
structure,DUX4 inh,DUX4 inh difference,DUX4 inh control
OC[C@H]1[C@H](c2ccc(Br)cc2)[C@H]2CN(Cc3ccccn3)CCCCN21,13.3,14.8,-1.5
CC(C)NC(=O)N1[C@@H](CO)[C@H](c2ccccc2)[C@@H]1CN(C)C(=O)c1cccnc1,3.7,2.8,0.9
CO[C@@H](CN(C)Cc1ccc2c(c1)OCO2)[C@@H](C)CN(C(=O)Nc1ccc(F)cc1)[C@H](C)CO,1.2,1.9,-0.7
COc1ccc2c3c([nH]c2c1)[C@H](CO)N(C(=O)c1ccc(F)cc1)CC31CCN(C)CC1,0.0,7.0,-7.1
Cc1ccccc1CN(C)C[C@@H]1OCc2cnnn2CCCC(=O)N([C@@H](C)CO)C[C@H]1C,-1.4,-3.8,2.4

# Given with the structure last: part of the list above
DUX4 inh	DUX4 inh difference	DUX4 inh control	compound
1.2	1.9	-0.7	CO[C@@H](CN(C)Cc1ccc2c(c1)OCO2)[C@@H](C)CN(C(=O)Nc1ccc(F)cc1)[C@H](C)CO
-1.4	-3.8	2.4	Cc1ccccc1CN(C)C[C@@H]1OCc2cnnn2CCCC(=O)N([C@@H](C)CO)C[C@H]1C
?	nt	nt	COc1ccc2c3c([nH]c2c1)[C@@H](CO)N(Cc1cccc(Cl)c1)CC31CCN(C(C)=O)CC1
